Vaccinia mCherry = inhibitors of vaccinia virus infection (mCherry reporter signal) | AID 720579 | Vaccinia virus mCherry reporter infection, fluorescence; about a quarter of the inactives have no number | actives 0.63% (n = 310,000) | Potency, µM (highest dose often 36.5 µM), for inactives: at the highest dose activity change, negative = inhibition, most hits filed as inhibitors; active = well fitted inhibition curve with a large enough effect; inconclusive = small, poorly fitted or top-dose-only effect; inactive = no such curve, though single readings can be large or run the other way; tested in A549 cells; note: nearly all actives have a fitted effect of over 35% in size; inactives centre near -10
VACV Venus inh = vaccinia inhibition (Venus reporter). Vaccinia virus Venus reporter expression, fluorescence. Potency, µM (highest dose often 36.5 µM), without a hit: at the highest dose activity change, negative = inhibition, hits mostly inhibitors. actives 0.46% (n = 330,000). AID 720580; active means well fitted inhibition curve with a large enough effect; inconclusive means small, poorly fitted or top-dose-only effect; inactive means no such curve, though single readings can be large or run the other way; tested in A549 cells; note: nearly all actives have a fitted effect of over 30% in size; inactives centre near -10
Active calls of the source: *; i = inactive; ? = inconclusive; nt = not tested or not shown; & = joins results of further samples. % is set by controls: 0 for no effect and ±100 for the full control effect; potency is the fitted concentration of half-maximal effect.

SMILES	Vaccinia mCherry	VACV Venus inh
Cc1cccc(OCC(=O)OCC(=O)N(CC(C)C)c2c(N)n(Cc3ccccc3)c(=O)[nH]c2=O)c1C	-19.3%	-14.2%
CCN(CC)S(=O)(=O)c1ccc(NC(=O)C2CC(=O)N(c3ccc4c(c3)OCCO4)C2)cc1 (centres undefined)	14.6%	-17.8%
O=C(CSc1cccc[n+]1[O-])Nc1c(Br)cc([N+](=O)[O-])cc1Br	-17.8%	-10.7%
O=C(Nc1cccnc1)c1c(O)c2cccc3c2n(c1=O)CC3	nt	?
Cn1c[n+](C)cc1/C=N/O	i	-9.7%
COc1ccc(CCNC(=O)CCCNC(=O)Cn2cnc3sc(C)c(C)c3c2=O)cc1OC	-0.4%	-15.3%
CCOC(=O)c1c(C)[nH]c(C)c1S(=O)(=O)N1CCN(c2cc(Cl)ccc2C)CC1	-28.9%	-15.2%
COc1ccc(C(=O)COC(=O)c2c(-c3ccccc3)noc2C)c(OC)c1	i	-9.4%
CCS(=O)(=O)N1N=C(c2cccc(NS(C)(=O)=O)c2)CC1c1ccccc1 (centres undefined)	-0.2%	-4.2%
COc1ccc(NC(=O)CC2SC(=NCC3CCCO3)NC2=O)cc1 (centres undefined)	i	-11.5%
Cc1ccc(-n2nnc(-c3nccs3)n2)cc1	-4.8%	-11.9%
CCC(C)(C)NC(=O)C(c1ccc(F)cc1)N(Cc1ccco1)C(=O)CCC(=O)Nc1ccccn1 (centres undefined)	nt	-19.8%
O=C1OCCN1C(=O)[C@H]1[C@H](c2ccc(F)cc2)C(c2cccc(Cl)c2)=NN1c1ccccc1	?	-24.7%
COc1ccc(C(C(=O)NCC2CCCO2)N(C(=O)Cn2nnc3ccccc32)c2ccccc2C(C)=O)cc1OC (centres undefined)	10.6%	4.0%
CCOc1ccccc1Nc1nnc(-c2cc3cc(Cl)ccc3oc2=O)s1	?	?
Cc1cccc(C)c1N1C(=O)c2cccc([N+](=O)[O-])c2C1=O	i	-12.3%
Cn1c(=O)c2c(SCC(=O)N3CCN(c4ccccc4)CC3)nc(C3CC3)nc2n(C)c1=O	7.4%	8.7%
CN(C)S(=O)(=O)c1cccc(NC(=O)COC(=O)/C=C/c2ccc3c(c2)OCO3)c1	i	-14.3%
CC(C)OCCCNc1ncc2c(n1)CC(c1cccs1)CC2=O (centres undefined)	-0.5%	5.4%
Cc1c(NC(=O)C2CCCCN2S(=O)(=O)c2ccc(Cl)cc2)c(=O)n(-c2ccccc2)n1C (centres undefined)	3.8%	-6.8%
CS(=O)(=O)c1ccc(Cl)c(NC(=O)COC(=O)c2ccc(F)cc2Cl)c1	-15.9%	-12.2%
O=C(/C=C/c1ccccc1)NNC1=NS(=O)(=O)c2ccccc21	i	-5.1%
O=C(Nc1ccccc1C(=O)Nc1ccccc1)c1ccco1	i	-8.9%
CC1=C(C(=O)N(C)C)CC(CC(=O)NC(c2ccccc2)c2ccccc2)C(=O)N1CCC1=CCCCC1 (centres undefined)	-9.5%	-18.3%

Some values from the entries so far.
Reading for CC(C)OCCCNc1ncc2c(n1)CC(c1cccs1)CC2=O (centres undefined) in VACV Venus inh: 5.4%
Reading for Cn1c(=O)c2c(SCC(=O)N3CCN(c4ccccc4)CC3)nc(C3CC3)nc2n(C)c1=O in Vaccinia mCherry: 7.4%
Reading for Cc1c(NC(=O)C2CCCCN2S(=O)(=O)c2ccc(Cl)cc2)c(=O)n(-c2ccccc2)n1C (centres undefined) in VACV Venus inh: -6.8%
Reading for O=C1OCCN1C(=O)[C@H]1[C@H](c2ccc(F)cc2)C(c2cccc(Cl)c2)=NN1c1ccccc1 in VACV Venus inh: -24.7%
Reading for O=C(Nc1ccccc1C(=O)Nc1ccccc1)c1ccco1 in VACV Venus inh: -8.9%
Reading for CS(=O)(=O)c1ccc(Cl)c(NC(=O)COC(=O)c2ccc(F)cc2Cl)c1 in VACV Venus inh: -12.2%

Following part.
SMILES	Vaccinia mCherry	VACV Venus inh
COc1cccc(-c2csc(N3CCN(C(=O)Nc4ccccc4Cl)CC3)n2)c1	i	-4.6%
Oc1ccc(Nc2nc(-c3cccs3)cs2)cc1	i	-4.6%
CCn1c(COc2ccc(Cl)cc2)nnc1SCc1ccc(C#N)cc1	?	-23.9%
CCOc1ccc(Nc2cc(C(=O)NCc3ccccc3Cl)c3ccccc3n2)cc1	-13.4%	-9.4%
Cc1nn(CC(=O)NCc2ccc(C(=O)O)cc2)c(C)c1[N+](=O)[O-]	-23.6%	-17.6%
OC(COC(c1ccc(Cl)cc1)c1ccc(Cl)cc1)CN1CCN(c2ccccn2)CC1 (centres undefined)	-6.7%	-30.6%
Cc1oc(/N=C/c2ccccc2O)c(C#N)c1C	i	0.9%
CCC(C)[C@H]1CNCCN1CC1(c2ccccc2)CC1 (some centres undefined)	0.0%	-12.5%
CCC(C)NC(=O)c1cc(Cl)ccc1OC (centres undefined)	-9.6%	5.3%
O=C(NCc1ccccc1Cl)C1CCN(S(=O)(=O)Cc2ccccc2)CC1	-8.6%	-5.5%
CN(C)c1ccc(C=Cc2ccnc3c(O)cccc23)cc1	?	?
Cc1nc2ccn(Cc3cccs3)c(=O)c2cc1C(=O)NCc1ccc(Cl)cc1	-10.6%	-5.0%
Cc1cc(C)cc(OCCSc2nc(-c3ccc(C(C)(C)C)cc3)nc3cc(=O)[nH]n23)c1	-27.9%	-26.6%
Cc1cccc(NC(=S)N2CCC(O)CC2)c1C	-0.7%	-5.9%
CCN(CC)S(=O)(=O)c1ccc(N2CCOCC2)c(NC(=O)CCC2CCCCC2)c1	i	-11.1%
Cc1cc(C)n(CCCO)c(=O)c1C#N	-12.9%	-6.8%
CC(C)CNC(=O)C1C(=O)Nc2ccccc2C(=O)N1C(C)(C)C (centres undefined)	-15.2%	-1.6%
Cc1ccc(NC(=O)Cn2cnc3c(NCc4ccccc4)ncnc32)cc1C	i	-1.6%
CN(C)CCNc1cnn(-c2ccccc2)c(=O)c1Cl	i	-11.0%
COc1cc(C2C(C#N)=C(N)OC3=C2C(=O)CCC3)cc(OC)c1OC(=O)N1CCOCC1 (centres undefined)	nt	1.2%
CO/N=C/c1ccc(OC)c(Oc2nc(OC)cc(OC)n2)c1	-5.9%	-6.1%
COc1ccc(C(=O)NCCn2cc(SCc3cc(C)ccc3C)c3ccccc32)cc1	-29.0%	-28.2%
COc1cc(OC)cc(C(=O)NCCSc2c[nH]c3ccccc23)c1	-20.1%	1.9%
COc1cccc(COC(=O)CSCC(=O)Nc2ccc(C)cc2)c1OC	-15.6%	-1.6%
Oc1ccc(-c2onc3ccc(Cl)cc23)cc1	nt	-6.9%
COc1cc2cc(CN(CCN3CCCC3)C(=O)Nc3ccc(F)cc3)c(=O)[nH]c2cc1OC	-7.8%	-14.3%
CCOC(=O)c1c(C)[nH]c(C(=O)COC(=O)CNS(=O)(=O)c2ccc(C)cc2)c1C	-10.9%	-7.7%
CN1CCN(c2cc(-c3ccc(N(C)C)cc3)ncn2)CC1	-10.9%	0.0%
CCCCOCCCNC(=O)C[C@@H]1C[C@@]2(C(=O)OC)CC(C)(C)CC=C2N(Cc2cccc3ccccc23)C1=O	?	?
Cc1ccc(Cn2nnc3c(=O)n(CC(=O)N4CCN(c5ccccc5)CC4)cnc32)cc1	-7.8%	-14.8%
CN1C2CCC1CC(OC(=O)C(CO)c1ccccc1)C2 (centres undefined)	-10.8%&-1.8%&-10.1%	-12.0%&-12.1%&-13.0%&-10.3%&-14.0%
Cc1ccnc(NS(=O)(=O)c2cc(-c3cc(C)no3)ccc2C)c1	-7.8%	-4.6%
O=C(Nc1ccc2c(c1)OCCO2)C1CCCN1S(=O)(=O)c1ccc(Cl)cc1 (centres undefined)	6.4%	0.7%
COc1cccc2cc(S(=O)(=O)c3ccccc3)c(=Nc3ccc4c(c3)OCCO4)oc12	i	-7.1%
O=c1cc(C(F)(F)F)nc(-c2cccnc2)[nH]1	i	-3.7%
CCCCCCCCN1C(=O)[C@H](CC(=O)N2CCCCC2)C[C@@]2(C(=O)OC)CC(C)(C)CC=C12	-20.4%	-13.9%
COc1cccc2cc(-c3ccccc3)c(=O)oc12	-9.6%	-9.9%
CCOC(=O)C1(c2ccccc2)CCN(CCC(=O)Nc2cccc(Br)c2)CC1	?	?
NC(=O)CSc1nnc(-c2ccncc2)n1CCc1ccccc1	2.3%	?
COCCCNc1ccn2nc(-c3ccc(CC(C)C)cc3)cc2n1	?	-28.6%
Cc1ccc(CSCC(=O)NCc2cccnc2)cc1	i	-13.3%
Cc1ccc(C(=O)O/N=C2/CC3CCC2(C)[C@@]3(C)CBr)cc1 (some centres undefined)	-28.8%	?
COc1cc(N=C(N)N=C(N)N)cc(OC)c1	i	-12.2%
NS(=O)(=O)c1ccc(NC(=O)C(=O)NCCC(=O)O)cc1	-13.2%	-3.4%
CCCC[C@@H]1CNC(=O)C(=O)N1CC1CCCCC1	3.0%	-5.5%
Cc1cc(C(=O)NC2CCCc3c2cnn3-c2ccc(C)c(C)c2)nc(C)n1 (centres undefined)	i	-18.5%
CC(C)C[C@H]1CNC(=S)N1C[C@H]1CCCN1C[C@H](CC(C)C)N1C[C@H](Cc2ccc(O)cc2)N(CC2CCCCC2)C1=S	?	?
CCOc1ccccc1NC(=O)Cn1cc(C(=O)c2cccc(OC)c2)c(=O)c2ccc(C)nc21	6.1%	10.7%
Cc1ccc(Nc2nc(C)c(NC(=O)c3ccc(C)cc3)c(Nc3ccc(C)cc3)n2)cc1	-19.7%	-13.2%
CN1CCN(c2ccc(NC(=O)c3ccccc3)cc2)CC1	-13.3%	-5.5%
COC(=O)C1=C(N)Oc2cc(C)n(CCCn3ccnc3)c(=O)c2C1c1cccc(Cl)c1 (centres undefined)	-18.7%	-7.9%
COc1ccc(N(C)S(=O)(=O)c2cccc(C(=O)NC3CCCCC3C)c2)cc1 (centres undefined)	-26.3%	-10.1%
Cc1ccc(S(=O)Cc2ccc(C(=O)NC3CCCCCC3)o2)cc1 (centres undefined)	-17.2%	-7.8%
O=C(NCc1ccccn1)C1CCN(S(=O)(=O)c2cnc[nH]2)CC1	-13.1%	-5.4%
CC1CC1C(=O)N(C)CC(=O)Nc1cccc(F)c1 (centres undefined)	i	-10.5%
CCOc1ccc(Nc2oc(-c3ccc(COc4ccc(C)cc4)o3)nc2C#N)cc1	-41.4%	?
CC(C)C(=O)NC(CC(=O)O)c1ccccc1 (centres undefined)	-4.7%	-7.7%
CC(C)CCNC(=O)C1(O)c2ccccc2NC(=O)N1c1ccc(Cl)cc1 (centres undefined)	-13.6%	-1.7%
CC(C)Oc1ccc(C(CC(=O)O)NC(=O)C(Sc2ccccc2)c2ccccc2)cc1 (centres undefined)	i	-3.0%
CC(C)c1nc2cc(C(=O)N(C)Cc3ccc(F)cc3)ccc2o1	i	-13.3%

Single records, as listed above. Values in the order: Vaccinia mCherry, VACV Venus inh
O=C(Nc1cccnc1)c1c(O)c2cccc3c2n(c1=O)CC3 is entered as nt, ?
Cc1ccc(CSCC(=O)NCc2cccnc2)cc1 is entered as i, -13.3%
Oc1ccc(Nc2nc(-c3cccs3)cs2)cc1 is entered as i, -4.6%

(list continues)
SMILES	Vaccinia mCherry	VACV Venus inh
COc1ccccc1-n1c(SCC(=O)Nc2ccc(NC(C)=O)cc2)nc2c([nH]c3ccccc32)c1=O	i	-20.4%
Cc1ccc(NS(=O)(=O)c2ccc3c(c2)oc(=O)n3C)c(C)c1	?	-17.6%
O=C(O)C1SCCN1S(=O)(=O)c1ccc(N=NN2CCOCC2)cc1 (centres undefined)	0.3%	-11.2%
O=C(CN(C(=O)CCC(=O)Nc1nccs1)c1ccc(F)cc1)NCc1ccc2c(c1)OCO2	-3.2%	0.9%
COc1ccc(NC(=O)C2CCCN(S(=O)(=O)c3cccc4nonc34)C2)cc1OC (centres undefined)	-19.9%	-11.1%
COc1cccc(CN2CCNC(=O)C2CC(=O)NCCOc2cccnc2)c1 (centres undefined)	?	-2.3%
COc1cc(/C=C(\NC(=O)c2ccccc2)C(=O)NCCO)c([N+](=O)[O-])cc1OC	-14.0%	-2.3%
COc1ccc(NCc2cc3cc4c(cc3n(CC(=O)Nc3ccc(C)cc3)c2=O)OCO4)cc1	-9.6%	-9.1%
CCCCNC(=O)Cn1c(=O)cc(C)c2c(C)nn(-c3ccc(CC)cc3)c21	i	-0.8%
CCN(CC)S(=O)(=O)c1ccc(OCC(=O)NC(=O)c2ccccc2OC)c([N+](=O)[O-])c1	-23.8%	-13.8%
N#C/C(=C\c1cccc(NC(=O)c2ccccc2Cl)c1)C(=O)NCCc1ccccc1	-25.2%	-5.1%
CCOC(=O)CSc1ccc2nnc(-c3ccccc3)n2n1	i	-9.8%
CC1CCN(Cc2c(O)ccc3c(=O)c(Oc4ccccc4Cl)c(C(F)(F)F)oc23)CC1	-11.0%	-9.1%
CCOC(=O)C1=C[C@@H](C(C)C)N(S(=O)(=O)c2ccc(C)cc2)[C@H]1c1ccc(C(C)C)cc1	i	-0.9%
COc1cc(C(=O)NC2CCCc3ccccc32)ccc1OCC(=O)Nc1ccc(F)cc1 (centres undefined)	i	0.1%
COC(C(=O)Nc1ccc(F)cc1)c1ccccc1 (centres undefined)	-14.7%	-10.2%
COc1cc(CN(C(=O)c2ccc(Cl)cc2)C2CCS(=O)(=O)C2)cc(OC)c1OC (centres undefined)	-8.5%	0.4%
COc1cccc(C(=O)Nc2cccc(C(=O)NCC(C)C)c2)c1	-3.6%	-15.7%
CC(=O)Nc1ccccc1C(=O)C(=O)Nc1cccc(Br)c1	2.0%	-5.9%
CC(/C=C/c1ccc(N(C)C)cc1)=N/N=C1/NC(=O)CC(C(=O)Nc2ccc(Cl)cc2)S1 (centres undefined)	?	?
Cc1cccc(C(=O)Nc2cc3c(cc2N2CCCCC2)n(C)c(=O)n3C)c1	-7.7%	-6.2%
CC(C)CC(=O)Nc1ccc2c3c(cccc13)CC2	-3.5%	-15.3%
Cc1ccc(C(C)C)c(OCC(=O)Nc2ccc(N3CCN(S(C)(=O)=O)CC3)cc2)c1	-15.2%	-15.0%
